High-throughput results from PubChem.
TAR Tat displ – HIV-1 TAR-Tat binding disruption; HIV-1 TAR RNA, Tat peptide displacement FRET; active compounds read high; AID 1259389; z-score (test concentration not listed); 0.6% of 100,000 active;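 note: score is relative to mean and SD of negative controls; some compounds called inactive have numbers as strong as hits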
CDC25B CDK2 inh – human CDC25B-CDK2/CyclinA binding inhibition; AID 1259370; P30305+P24941; 0.72% of 94,000 active; z-score (concentration not given with the values); HTRF CDC25B-CDK2/CyclinA binding, anti-His/anti-Flag; active compounds read high;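 note: score is relative to mean and SD of negative controls; strong numbers were not always called active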
The depositor's hits bear a star; . = no result given.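 Rule for the calls: active = z-score from 3 up in half or more of its runs; inactive = the rest.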

The opening 3 entries, to show the layout:
Values run as follows: TAR Tat displ | CDC25B CDK2 inh
CCOc1ccc(/C(O)=C2\C(=O)C(=O)N(CCN(C)C)C2c2ccc(F)cc2)cc1C (configuration not stated)
    -1.72 | -2.67
N#CC(c1ccc(Cl)cc1)N1CCOCC1 (configuration not stated)
    . | -0.99
Cc1nnc(NC(=O)CSc2ccccn2)s1
    2.36 | -2.96

The list itself (from the top)
Values run as follows: TAR Tat displ | CDC25B CDK2 inh
CCOc1ccc(/C(O)=C2\C(=O)C(=O)N(CCN(C)C)C2c2ccc(F)cc2)cc1C (configuration not stated)
    -1.72 | -2.67
N#CC(c1ccc(Cl)cc1)N1CCOCC1 (configuration not stated)
    . | -0.99
Cc1nnc(NC(=O)CSc2ccccn2)s1
    2.36 | -2.96
C=CCc1ccc(OCCCSc2nc3ccccc3[nH]2)c(OC)c1
    -0.49 | 0.75
O=C(O)Cc1n[nH]c(=O)c2ccccc12
    -0.42 | -0.92
O=C(CSc1nc2ncccc2o1)Nc1ccc(Br)cc1F
    -0.61 | .
COc1ccc(OCCn2cc(C(=O)c3cccs3)c3ccccc32)cc1
    2.07 | -3.5
CC(C(c1cccs1)c1c(N)n(C)c(=O)n(C)c1=O)[N+](=O)[O-] (configuration not stated)
    . | -2.74
COc1ccc(-c2nn3c(C)nnc3s2)cc1OC
    0.3 | -0.57
O=C1Nc2cc(C(=O)N(Cc3cccs3)C3CCCC3)ccc2Sc2ccccc21
    1.05 | -0.07
COc1ccc(-c2c3c(=O)n(C)c(=O)n(C)c3c3n2C(C)(C)COC3)cc1
    -0.56 | -0.69
Cc1cccc(-n2cc(-c3ccccc3)c3c(NCCN(C)C)ncnc32)c1
    -0.27 | -1.69
COc1ccc(-c2oc3ncn4nc(-c5ccco5)nc4c3c2-c2ccc(OC)cc2)cc1
    . | -1.48
Cc1ccc(N2C(=O)N(CC(=O)C(C)(C)C)c3ccccc3S2(=O)=O)cc1
    0.86 | .
CCOc1cc(/C=c2\sc3nc4c(C)cc(C)cc4n3c2=O)ccc1OCc1ccccc1F
    . | -2.92
CN(C)S(=O)(=O)c1ccc2c(c1)N(CC(=O)N1CCc3ccccc3C1)CCS2
    0.38 | .
COc1ccc(CCNc2ncnc3c2oc2ccccc23)cc1OC
    1.84 | .
O=C(c1ccc(F)cc1)C(C(=O)N1CCN(C/C=C/c2ccccc2)CC1)n1ccccc1=O (configuration not stated)
    1.49 | -0.25
Cc1cc(=O)[nH]c(SCC(=O)c2cccs2)n1
    0.81 | 0.02
COc1cc(OC)cc(-c2cc(N)n(S(=O)(=O)c3ccccc3)n2)c1
    0.47 | 0.05
COc1ccc(OC)c(NC(=O)Nc2nnc(N3CCCCC3)s2)c1
    0.27 | -1.43
Cc1noc(C)c1S(=O)(=O)Oc1ccccc1N1CCOCC1
    . | -1.71
CCCOC(=O)C1=C(C)NC2=C(C(=O)C(C(=O)OC)C(C)C2)C1c1ccc(OC)c(O)c1 (configuration not stated)
    0.06 | -0.68
CCCC12CN3CC(C)(CN(C1)C3c1ccccc1F)C2=O (configuration not stated)
    -1.17 | -2.14
Cc1ccc(-c2cn3cc(-c4ccc(Cl)cc4)nc3n2C)cc1
    0.76 | -0.06
CC1CCCC(C)N1CCNC(=O)CN1C(=O)CSc2ccc(S(=O)(=O)N3CCCC3)cc21 (configuration not stated)
    0.51 | .
COc1ccc(S(=O)(=O)Nc2nc(-c3cccc([N+](=O)[O-])c3)cs2)cc1OC
    . | -1.96
O=C1CCCN1CCCNc1ccc2nnc(CCC(=O)N3CCN(c4ccccc4)CC3)n2n1
    2.38 | .
O=c1ccc2cc(S(=O)(=O)N3CCN(c4ccccc4)CC3)ccc2[nH]1
    -1.75 | .
CC(O)C(Nc1ncnc2ccccc12)C(=O)O (configuration not stated)
    -2.12 | -0.14
CCOc1nc(-c2ccc(OC)cc2)ccc1-c1noc(-c2cccnc2)n1
    -0.81 | 2.06
Cn1ccnc1SCC(O)c1ccc2c(c1)OCO2 (configuration not stated)
    -0.04 | -0.87
Cc1ccnc(SC2CC(=O)N(c3ccc(Cl)cc3)C2=O)n1 (configuration not stated)
    -0.21 | -2.69
CC1CCC(NC(=O)C2(C)Cn3c(cc4sccc43)C(=O)N2Cc2ccco2)CC1 (configuration not stated)
    0.94 | -1.87
Cc1ccc(Cn2nnc3c(=O)[nH]c(C4CCN(C(=O)c5ccc6c(c5)OCO6)CC4)nc32)cc1
    0.72 | 1.14
CC1=C(c2cccc(Br)c2)S(=O)(=O)N=C1Nc1c(C)cccc1C
    -1.12 | -1.21
Cn1c(N2CCOCC2)nc2c1c(=O)n(Cc1ccccc1)c(=O)n2C
    -0.47 | -0.21
CCOC(=O)C(=O)Nc1nnc2n1CCS2
    -0.37 | .
CCC(C)NC(=O)Cn1c(=O)c2cccn2c2cccnc21 (configuration not stated)
    -0.22 | .
Cc1nnc(NCC2CC2)c2c1nnn2Cc1ccccc1Cl
    2.38 | -2.18
CCN(CC)S(=O)(=O)c1ccc2c(c1)N(Cc1cccnc1)C(=O)CS2
    -1.08 | .
Cc1ccc(C)c(N2C(=O)N(CC(=O)c3ccc(F)cc3)c3ccccc3S2(=O)=O)c1
    0.56 | .
Cc1noc2ncnc(NCCCN3CCN(C)CC3)c12
    -0.52 | .
CSc1cccc(NC(=O)CN(C)S(=O)(=O)c2ccc3c(c2)CC(C)N3C(=O)C2CC2)c1 (configuration not stated)
    1.41 | .
COC(=O)Cn1cc(-c2nnc(CN3CCC(C)CC3)o2)c2ccccc21
    1.68 | -2.48
O=C(CCCN1CCSc2ccccc21)N1CCN(c2ccc(F)cc2)CC1
    0.74 | .
Cc1ccc(CNC(=O)NC(C)c2c(-n3cccc3)sc(C)c2C)cc1 (configuration not stated)
    -0.25 | -0.94
Cc1cc(=O)nc2c3ccccc3n(CC(=O)N3CCC(N4CCCCC4)CC3)n12
    0.48 | 0.12
O=C(c1ccccc1)c1ccc2[nH]c(=O)c(=O)[nH]c2c1
    2.29 | -0.81
O=C(NCC1CCN(C2CCCC2)C1)Nc1ccccc1F (configuration not stated)
    -0.29 | -2.21
CCN(CC)CCNC(=O)c1nnc(-c2ccc3c(c2)OCO3)o1
    1.98 | -0.7
COc1ccc(C2CC(=O)C3=C(C2)Nc2ccccc2NC3c2ccc(OC)cc2)cc1 (configuration not stated)
    -0.88 | -0.75
CCCc1nn2c(=O)cc(COC(=O)c3ccccc3C)nc2s1
    -0.6 | .
CN(C)/C=C/C(=O)c1ccco1
    . | -1.34
Cn1ncc2c(NCc3ccccc3)nc(N3CCOCC3)nc21
    1.76 | .
O=C1c2ccccc2C(Nc2ccccc2F)N1c1cccnc1 (configuration not stated)
    0.41 | -1.49
COC(=O)c1cc(S(=O)(=O)Nc2nn(C)c3cccc(F)c23)oc1C
    . | -1.02
COc1ccccc1/C=C/c1nc(C#N)c(N2CC(C)OC(C)C2)o1 (configuration not stated)
    -0.38 | -2.21
COc1cccc(-c2noc(Nc3ccc(OC)cc3OC)n2)c1
    -0.64 | .
O=C(Cn1c(=O)oc2cc(S(=O)(=O)N3CCCCC3)ccc21)N1CCc2ccccc21
    -0.48 | -0.63

Record cards (already shown).
Cc1ccc(C)c(N2C(=O)N(CC(=O)c3ccc(F)cc3)c3ccccc3S2(=O)=O)c1 across the screens: TAR Tat displ: 0.56; CDC25B CDK2 inh: .
COC(=O)Cn1cc(-c2nnc(CN3CCC(C)CC3)o2)c2ccccc21 across the screens: TAR Tat displ: 1.68; CDC25B CDK2 inh: -2.48

Further compounds
Values run as follows: TAR Tat displ | CDC25B CDK2 inh
CCCCN(Cc1nnc(-c2ccccc2)o1)c1ccccc1
    0.7 | -0.22
O=C(O)c1cccc2c1NC(c1ccccc1)C1C3CCC(C3)C21 (configuration not stated)
    -1.38 | -1.48
O=C(c1ccco1)N1CCN([C@H]2CS(=O)(=O)C[C@@H]2S(=O)(=O)c2ccccc2)CC1
    0.19 | -0.57
CCOc1cc(C2NC(C(=O)O)CS2)ccc1O (configuration not stated)
    1.35 | -1.99
CCCC(NC(=O)c1noc2c1CCc1sccc1-2)c1cccs1 (configuration not stated)
    0.57 | .
O=C(Cc1noc2ccccc12)Nc1cc(F)ccc1F
    2.26 | -0.24
N#Cc1nc(-c2ccc(COc3ccc(Cl)cc3)o2)oc1NCc1ccco1
    -0.49 | -2.16
CCc1cc(=O)[nH]c2c1c(C)nn2-c1ccc(F)cc1
    1.39 | .
COC(=O)C(C)Sc1nnc(CSc2ncccn2)n1C (configuration not stated)
    0.12 | 0.21
COc1ccc(C2OCC3(CO2)SC(=O)NC3=O)cc1 (configuration not stated)
    . | -0.3
COc1cccc(-c2noc(N3CCc4ccccc43)n2)c1OC
    0.04 | .
Cc1ccc(Cn2c(=O)oc3ccc(C(=O)O)cc32)cc1
    1.5 | .
COc1ccc(OC)c(CNc2ncnc3onc(-c4ccc(F)cc4)c23)c1
    1.45 | .
COC(=O)CSc1nnc(CNC(=O)c2ccco2)n1C
    . | 0.33
Cc1cc(C)n(-c2cc(NCCCOC(C)C)ncn2)n1
    0.29 | .
CC1CCCCN1C(=O)c1ccc2c(=O)n3c(nc2c1)CCCC3 (configuration not stated)
    3.04 | .
CCOC(=O)c1c(N(C)C)ccc(C2C=CNC(=O)N2)c1C (configuration not stated)
    . | 0.45
CCOC(=O)CSC1=C(C#N)C(c2ccco2)C(C(=O)Nc2ccccc2)=C(C)N1 (configuration not stated)
    2.12 | -1.5
CCOC(=O)C1=[N+]([O-])OC(C(=O)OCC)C1CC(C)=O (configuration not stated)
    . | -1.68
Cc1ccc(-n2ncc3c(NCCCO)ncnc32)cc1C
    0.38 | .
COc1ccc(C(=O)C[n+]2ccc3c(c2)nnn3C)cc1
    . | -1.01
CCOC(=O)C1CCN(c2c(NCCCN3CCN(C)CC3)c(=O)c2=O)CC1
    2.21 | 1.46
CCC/C(O)=C(/C=Nc1ccccc1C(=O)OC)C(=O)OCC
    . | -1.07
CC(C)=NNC(=S)Nc1ccc(Cl)cc1
    . | -1.56
OCC#CCSc1nnc(-c2ccccc2Br)o1
    0.61 | -1.41
COc1ccc(-c2cc(=O)c3cc(OC(=O)C(C)C)ccc3o2)cc1
    -0.35 | -0.14
COc1ccc(NC(=O)Nc2c[nH]c(=O)[nH]c2=O)cc1OC
    2.33 | .
CSc1cccc(NC(=O)CCS(=O)(=O)c2ccc3nc(C)sc3c2)c1
    2.4 | .
CCOC(=O)C(C)Sc1nnc(-c2c[nH]c3ccccc23)n1CCOC (configuration not stated)
    . | -1.92
O=C(NCCCN1CCCCC1)c1cccn1-c1nnc(N2CCCC2)s1
    -0.28 | .
O=S(=O)(c1ccc(Br)cc1)N1CCCC(c2nc(-c3cccc(F)c3)no2)C1 (configuration not stated)
    2.07 | .
O=C(CSc1ccc(-c2cccs2)nn1)c1ccc(F)cc1
    1.2 | .
Cc1ccccc1-n1c(-c2cccnc2)n[nH]c1=S
    . | -2.79
O=C(Nc1ccc(-c2cn3cccnc3n2)cc1)c1ccc(F)c(F)c1
    . | -0.47
CN(C)CCOC(=O)c1cccc2c1-c1ccccc1C2=O
    1.18 | -1
Cc1nnsc1C(=O)Oc1cccnc1
    . | -1.06
CCC(C)NC(=O)c1sc2nc3n(c(=O)c2c1C)CCCC3 (configuration not stated)
    0.45 | .
Cc1cc(-n2ccnc(NCCC3=CCCCC3)c2=O)ccc1Br
    -2.71 | .
CCc1c(C)nc2n(c1=O)C(CS(=O)(=O)c1ccc(C)cc1)CS2 (configuration not stated)
    0.37 | -1.64
O=C(NCCCn1ccnc1)c1nn2c(C(F)(F)F)cc(-c3ccccc3)nc2c1Br
    0.79 | -0.5
CCOC(=O)Cn1c(=O)oc2cc(S(=O)(=O)N(C)Cc3ccco3)ccc21
    . | -1.28
O=C1C2=C(c3cc(O)ccc3O)CCCN2C(=O)CN1Cc1ccccc1
    . | 0.21
O=C(CSc1nnc(CN2CCOCC2)o1)Nc1ccc(Br)cc1
    0.34 | .
O=C(NCC1CCCO1)C(=O)Nc1ccc(Br)cc1 (configuration not stated)
    0.33 | -0.78
CC1CCc2c(sc(NC(=O)c3ccncc3)c2C(N)=O)C1 (configuration not stated)
    1.32 | -0.13
O=C(C1CCCCC1)n1c(=O)oc2cc(Cl)ccc21
    -6.2 | .
CC(C)CNc1ncnc2c1cnn2-c1ccc(F)cc1
    0.93 | .
O=C1CC(O)(C(F)F)Oc2ccc(Cl)cc21 (configuration not stated)
    . | -0.66
CCCN1C(=O)C2(/C(=C(/O)c3ccc(F)cc3)C(=O)C(=O)N2CCCN(C)C)c2ccccc21 (configuration not stated)
    -1.37 | 0.09
CC1=C(C(=O)NCc2ccc3c(c2)OCO3)C2(CCN(S(=O)(=O)c3cccs3)CC2)OC1=O
    -0.1 | .
Cn1c(=O)n(C)c2cc(CNC(C)(C)C)ccc21
    -0.77 | -2.03
O=C(Nc1cccc(Cl)c1)N1CCCC(CN2CCc3ccccc3C2)C1 (configuration not stated)
    -1.91 | .
COCCCNc1nc(N)c([N+](=O)[O-])c(Nc2cccc(F)c2)n1
    -0.01 | .
CC1CC(C)CN(C(=O)CCc2nnc3ccc(N4CCCCC4)nn23)C1 (configuration not stated)
    0.28 | .
Cn1nc(C(=O)NCCN2CCOCC2)c2c1-c1ccccc1OC2
    0.96 | -0.56
COCCNC(=O)N1CCc2cc(S(=O)(=O)Nc3ccccc3)ccc21
    1.24 | .

An excerpt from above in order of molecular weight, rising.
Values run as follows: TAR Tat displ | CDC25B CDK2 inh
O=C1CC(O)(C(F)F)Oc2ccc(Cl)cc21 (configuration not stated)
    . | -0.66
O=C(NCC1CCCO1)C(=O)Nc1ccc(Br)cc1 (configuration not stated)
    0.33 | -0.78
COCCCNc1nc(N)c([N+](=O)[O-])c(Nc2cccc(F)c2)n1
    -0.01 | .
Cn1nc(C(=O)NCCN2CCOCC2)c2c1-c1ccccc1OC2
    0.96 | -0.56
O=C(CSc1nnc(CN2CCOCC2)o1)Nc1ccc(Br)cc1
    0.34 | .
CC1=C(C(=O)NCc2ccc3c(c2)OCO3)C2(CCN(S(=O)(=O)c3cccs3)CC2)OC1=O
    -0.1 | .
